Screens deposited in PubChem BioAssay by National Center for Advancing Translational Sciences (NCATS).
Cruzain Triton = blocks cruzain activity in presence of Triton detergent | actives 0.43% (n = 200,000) | purified cruzain, Z-FR-AMC fluorescence, 0.01% Triton | Potency, µM, for the others: max response, negative = inhibition, most hits filed as inhibitors | AID 1478;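 note: plate controls were neutral wells for no effect and buffer without enzyme for full effect; nearly all actives have a fitted effect of over 40% in size; top concentration of the series not given in the record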
Target sequence (P25779 123-467 limits assumed): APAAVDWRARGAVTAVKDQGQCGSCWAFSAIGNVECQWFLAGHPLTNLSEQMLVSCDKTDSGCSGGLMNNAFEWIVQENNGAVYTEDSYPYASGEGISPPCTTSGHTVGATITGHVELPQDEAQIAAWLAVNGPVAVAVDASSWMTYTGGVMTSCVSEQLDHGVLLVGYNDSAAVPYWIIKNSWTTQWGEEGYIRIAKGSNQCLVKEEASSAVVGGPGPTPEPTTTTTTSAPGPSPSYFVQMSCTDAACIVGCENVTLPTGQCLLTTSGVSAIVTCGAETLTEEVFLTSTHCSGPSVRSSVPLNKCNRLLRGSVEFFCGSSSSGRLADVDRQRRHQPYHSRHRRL
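Enzyme 1.5 nM, Z-FR-AMC 2 uM, NaOAc 100 mM pH 5.5, DTT 5 mM, Triton X-100 0.01%; 15 min RT compound preincubation; kinetic ex360/em450, 60 s delta.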
SARS PLpro yeast = SARS-CoV PLP inhibition in yeast; S. cerevisiae expressing SARS-CoV PLpro, growth rescue; control for the full effect not named in the record; AID 485353; actives 0.19% (n = 330,000); Potency, µM (top dose mostly 32.9 µM), inactives show at the highest dose activity, positive = growth rescue; active means well fitted rising curve with a large enough effect; inconclusive means small, poorly fitted or top-dose-only effect; inactive means no such curve, though single readings can be large or run the other way; note: 0% is about no effect; nearly all actives have a fitted effect of over 55% in size; growth read by luminescence after 48 h
NS1 function inh = blocks influenza NS1 protein function | actives 0.4% (n = 270,000) | S. cerevisiae slowed by influenza A NS1, growth recovery by OD600 | Potency, µM (titrated, usually from 46.1 µM), without a hit: at the highest dose activity, positive = more growth; active means well fitted rising curve with a large enough effect; inconclusive means small, poorly fitted or top-dose-only effect; inactive means no such curve, though single readings can be large or run the other way; note: nearly all actives have a fitted effect of over 50% in size
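OD600 was taken as the measure of yeast growth restored by compound in an NS1-expressing S. cerevisiae strain. Cells had been washed out of glucose medium and diluted 1:100 into galactose -URA medium, pH 6.0.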
Cruzain noTriton = cruzain (T. cruzi) inhibition without detergent. Potency, µM, inactives show max response, negative = inhibition, most hits filed as inhibitors. purified cruzain, Z-FR-AMC fluorescence, no detergent. actives 2.3% (n = 200,000). AID 1476;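 note: plate controls were enzyme without inhibitor for no effect and buffer without enzyme for full effect; nearly all actives have a fitted effect of over 40% in size; top concentration of the series not given in the record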
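Detergent-free condition (0.00005% Triton X-100) in acetate buffer pH 5.5 with DTT. 1.5 nM enzyme and compound were pre-mixed 15 min, then 2 uM Z-FR-AMC substrate added; reaction progress from fluorescence change between first and third reads (60 s).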
LASV entry inh = blocks Lassa virus binding to or entry into cells. Lassa virus pseudotype entry inhibition, cell reporter; control for the full effect not named in the record. Potency, µM (highest dose often 37.9 µM), for the others: at the highest dose activity change, negative = inhibition, usual class: inhibitors. actives 1.2% (n = 300,000). AID 540256; active means well fitted inhibition curve with a large enough effect; inconclusive means small, poorly fitted or top-dose-only effect, or effect the other way; inactive means flat fitted curve, though single readings scatter; tested in HEK293 cells; note: % is set by controls: 0 for no effect and ±100 for the full control effect; nearly all actives have a fitted effect of over 50% in size; luciferase read-out
StopGo reporter = FMDV 2A StopGo reporter, luciferase signal | human cells with a luciferase reporter of 2A StopGo recoding; control for the full effect not named in the record | Potency, µM (series often up to 57.9 µM), inactives show at the top dose signal change, negative = less light | actives 1.2% (n = 410,000) | AID 1159524; active = well fitted falling curve with a large enough effect; inconclusive = small, poorly fitted or top-dose-only effect; inactive = no such curve, though single readings can be large or run the other way; tested in HEK293T cells; note: % is set by controls: 0 for no effect and ±100 for the full control effect; nearly all actives have a fitted effect of over 45% in size; luciferase light after 4 h
RE007 growth inh = less growth of the S. pombe RE007 Vpr strain. Potency, µM (titrated, usually from 92.2 µM), for the others: top-dose activity change, negative = less growth. actives 0.21% (n = 360,000). S. pombe RE007 Vpr strain, BacTiter-Glo ATP luminescence, 24 h; control for the full effect not named in the record; active = well fitted falling curve with a large enough effect; inconclusive = small, poorly fitted or top-dose-only effect; inactive = no such curve, though single readings can be large or run the other way;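 note: % is set by controls: 0 for no effect and ±100 for the full control effect; nearly all actives have a fitted effect of over 50% in size; the assay follows cell death caused by Vpr and the record does not say whether a fall means rescue or toxicity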
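Fission yeast RE007 carrying one integrated HIV-1 vpr copy, seeded at OD 0.01 in PMG+AL medium with 23 nL pinned compound. Grown 24 h at 30 degrees; viability read by BacTiter-Glo luminescence after 5 min.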
MARV entry inh = blocks Marburg virus binding to or entry into cells; Potency, µM (doses to about 37.8 µM), for the others: top-dose activity change, negative = inhibition, hits mostly inhibitors; Marburg virus pseudotyped entry inhibition, cell reporter; control for the full effect not named in the record; about a third of the inactives were read at about 46 µM; actives 1.8% (n = 300,000); active = well fitted inhibition curve with a large enough effect; inconclusive = small, poorly fitted or top-dose-only effect, or effect the other way; inactive = flat fitted curve, though single readings scatter; tested in HEK293 cells; about a fifth of its hits are not listed in these tables; note: % is set by controls: 0 for no effect and ±100 for the full control effect; luciferase read-out
* hit, by the source's call; ? = inconclusive; · = not tested or not shown; [ ] = dose if it differs, or a comment. Unless noted, calls come from the whole dose curve; as a rule, active = well fitted curve in the direction sought with a large enough effect; inconclusive = small, poorly fitted or top-dose-only effect, or another doubt; inactive = no such curve, though single readings can be large; an effect the other way counts as inactive or inconclusive. Potency is the fitted concentration of half-maximal effect.

Results follow in this order: Cruzain Triton | SARS PLpro yeast | NS1 function inh | Cruzain noTriton | LASV entry inh | StopGo reporter | RE007 growth inh | MARV entry inh
1. CN(c1ccccc1)P(=O)(N1CC1)N1CC1
    · | · | · | · | -19% | -18% | -12% | -19%
2. Cc1cccc(OCC(=O)Nc2nc3ccc([N+](=O)[O-])cc3s2)c1C
    -4.9% | -2% | 3% | -25% | 0% | -9% | 1% | ?
3. CC(C(=O)Nc1ccccc1)N(C)CCOc1ccccc1 (stereo unspecified)
    · | -3% | -10% | · | 5% | 4% | -19% | 1%[46.1 µM]
4. Cc1ccc2occ(C(=O)c3ccco3)c(=O)c2c1
    -5.6% | -18% | 11% | -19% | ? | 56%[activator] | -7% | 4%
5. CCOc1ccc(C(=O)NC2CCN(C(=O)Nc3ccccc3OC)CC2)cc1
    0.6% | 26% | -4% | 9% | -2% | 6% | -3% | -3%
6. CCCc1cc(N2CCCC(C(=O)Nc3cc(Cl)ccc3OC)C2)n2ncnc2n1 (stereo unspecified)
    · | · | -12% | · | 4% | -15% | 5% | -13%
7. COc1ccccc1N1C(=O)C2C3C=CC(C3)C2(C)C1=O (stereo unspecified)
    0.6% | 8% | 6% | -1% | -2% | -6% | -2% | 1%
8. CC1CCN(S(=O)(=O)c2ccc3c(c2)oc(=O)n3CC(=O)N2CCc3ccccc3C2)CC1
    2.1% | -2% | 6% | -13% | · | -6% | 10% | ·
9. COc1cccc(Cn2cccc(NC(=O)Nc3cccc(C#N)c3)c2=O)c1
    · | 1% | -4% | · | · | -11% | -8% | ·
10. Cc1ccc(C(=O)NCC(c2ccc(F)cc2)N2CCOCC2)cc1 (stereo unspecified)
    · | 0% | 5% | · | · | 0% | -6% | ·
11. Cc1cccc(-n2cc(-c3ccccc3)c3c(N4CCOCC4)ncnc32)c1
    · | -6% | · | · | ? | ? | -18% | ?
12. CCOC(=O)c1oc2cccc(OCC(O)CNC(C)C)c2c1C (stereo unspecified)
    -1.3% | -6% | 3% | ? | 3% | -10% | -14% | ?
13. CCOc1ccc(CCNC(=O)CSc2nnnn2-c2ccc(C)cc2C)cc1OCC
    -3.8% | · | · | ? | -14%[46.1 µM] | -2% | · | -26%[46.1 µM]
14. CCC1CCCCN1S(=O)(=O)c1ccc(N2CCCCS2(=O)=O)cc1 (stereo unspecified)
    0.7% | · | · | -8% | 2%[46.1 µM] | 10% | · | ·
15. O=C(Nc1ccncc1)c1ccc(S(=O)(=O)Nc2ccccc2)cc1
    · | 0% | · | · | ? | ? | -27% | ?
16. CC(C)C[C@H](N)CSSC[C@@H](N)CC(C)C
    -5.4% | · | -7% | 3% | · | · | · | 1.3µM*
17. O=C(CN1CCCCC1)Nc1nnc(-c2ccccc2)s1
    -0.5% | -1% | -12% | 5% | 6% | 20% | -4% | 13%
18. COc1cc(OC)cc(C(=O)NCC(=O)OCC(=O)Nc2ccc3c(c2)OCO3)c1
    · | -4% | · | · | -7% | 6% | -10% | -2%
19. CC(=O)Nc1ccc(NC(=O)C(C)OC(=O)CC23CC4CC(CC(Br)(C4)C2)C3)cc1 (stereo unspecified)
    · | 4% | · | · | 0%[46.1 µM] | 5% | 11% | 12%[46.1 µM]
20. O=C(NC(=S)N1CCN(c2ccc(O)cc2)CC1)c1cccs1
    · | -1% | 1% | · | · | 34%[activator] | -4% | ·

The last 6 entries of the part above are carried over, then new ones follow:
Results follow in this order: Cruzain Triton | SARS PLpro yeast | NS1 function inh | Cruzain noTriton | LASV entry inh | StopGo reporter | RE007 growth inh | MARV entry inh
15. O=C(Nc1ccncc1)c1ccc(S(=O)(=O)Nc2ccccc2)cc1
    · | 0% | · | · | ? | ? | -27% | ?
16. CC(C)C[C@H](N)CSSC[C@@H](N)CC(C)C
    -5.4% | · | -7% | 3% | · | · | · | 1.3µM*
17. O=C(CN1CCCCC1)Nc1nnc(-c2ccccc2)s1
    -0.5% | -1% | -12% | 5% | 6% | 20% | -4% | 13%
18. COc1cc(OC)cc(C(=O)NCC(=O)OCC(=O)Nc2ccc3c(c2)OCO3)c1
    · | -4% | · | · | -7% | 6% | -10% | -2%
19. CC(=O)Nc1ccc(NC(=O)C(C)OC(=O)CC23CC4CC(CC(Br)(C4)C2)C3)cc1 (stereo unspecified)
    · | 4% | · | · | 0%[46.1 µM] | 5% | 11% | 12%[46.1 µM]
20. O=C(NC(=S)N1CCN(c2ccc(O)cc2)CC1)c1cccs1
    · | -1% | 1% | · | · | 34%[activator] | -4% | ·
21. Cc1ccc(CSC2=Nc3ccccc3C3=NC(CCC(=O)N4CCN(c5ccccc5)CC4)C(=O)N23)cc1 (stereo unspecified)
    -6.1% | · | · | 6% | -12%[46.1 µM] | 48%[activator] | · | -3%[46.1 µM]
22. C=CCN(C(=O)c1csnn1)C(C(=O)NCc1ccc(F)cc1)c1sccc1C (stereo unspecified)
    · | 1% | 18% | · | -29%[46.1 µM] | 24% | -8% | ?
23. O=C(NC(=S)Nc1cccc2c(O)cccc12)c1ccco1
    · | -5% | -21% | · | 1%[46.1 µM] | 14% | -17% | ?
24. CC(C)C1N(C(=O)CN2CCCC2)CCN1S(=O)(=O)c1ccccc1 (stereo unspecified)
    3.3% | -3% | 10% | -2% | -1% | 1% | 6% | -1%
25. O=C(O)c1cn(C2CC2)c2cc(N3CCN(S(=O)(=O)c4ccc5c(c4)OCCO5)CC3)c(F)cc2c1=O
    · | 1% | 3% | · | ? | ? | -1% | ?
26. CCOC(=O)c1nnc(-c2ccccc2)nc1NC
    -0.3% | 5% | -17% | -2% | 2% | 39%[activator] | -14% | 2%
27. CCOC(=O)/C=c1\s/c(=C\c2ccc(C#N)cc2)c(=O)n1CC(=O)Nc1cccc(C)c1C
    · | -1% | 2% | · | ? | -4% | -4% | ?
28. Fc1ccccc1/C=N/n1cc(-c2ccccc2)[nH]c1=S
    · | 2% | -32% | · | 9%[46.1 µM] | 17% | -11% | 26%[46.1 µM]
29. CCn1nc(NC(=O)C2CCCO2)c2cc3cc(C)ccc3nc21 (stereo unspecified)
    · | -2% | -7% | · | -6% | 17% | 23% | 4%
30. O=C1OCc2cc(N=Nc3c(O)[nH]c(=O)[nH]c3=O)ccc21
    · | 1% | 3% | · | · | 7% | 4% | ·
31. O=c1c2c(-c3cccs3)csc2ncn1/N=C/c1ccc(OC(F)F)cc1
    11% | 4% | 5% | -4% | 1% | ? | -18% | -4%
32. Nc1ncncc1-c1ccc2ccccc2c1
    · | -2% | -8% | · | · | -18% | 3% | ·
33. COc1cccc(NC(=O)c2cc(-c3ccc(C)o3)nc3ccccc23)c1
    · | -4% | 18% | · | -5%[46.1 µM] | -11% | -14% | -20%[46.1 µM]
34. CC(=O)N1CCN(S(=O)(=O)c2ccc(F)c(Cl)c2)CC1
    · | -1% | · | · | 5% | -7% | -4% | -9%
35. COc1cc(O)c(C(CCN2CCN(c3ccccc3)CC2)c2cc(OC)c(OC)c(OC)c2)c(OC)c1 (stereo unspecified)
    · | 4% | -2% | · | · | -15% | -15% | ·
36. O=C(NCc1ccccc1)C(c1ccccc1F)N(CC1CCCO1)C(=O)c1ccccn1 (stereo unspecified)
    · | -1% | -18% | · | ? | 23% | 7% | ?
37. CC(=O)N/C(=N/c1nc(C)cc(C)n1)Nc1cccc(C)c1C
    · | 7% | -2% | · | 21% | -8% | 0% | 15%
38. O=C(/C=C\Nc1cccc(F)c1)c1ccc2c(c1)OCO2
    1.7% | -7% | -63% | 25µM* | ? | -44% | ? | ?
39. O=C(CN1c2ccccc2Sc2ccccc21)NNC(=O)Nc1cccc(Cl)c1
    · | 2% | -4% | · | ? | 17% | -15% | ?
40. CC(C)(C)c1ccc(CN2C(=O)c3ccccc3S2(=O)=O)cc1
    · | 17% | -7% | · | ? | -23% | -8% | ?
41. CCOc1ccc(Oc2ccc(Cl)cc2NC(=O)CCNC(C)=O)cc1
    · | 0% | · | · | -15% | -22% | 33% | -9%[46.1 µM]
42. Cc1c(C(=O)Nc2ccc(S(N)(=O)=O)cc2)oc2ccc(Cl)cc12
    · | 1% | 10% | · | 0% | 3% | -10% | 3%[46.1 µM]
43. CCn1nc(C)c(CN2CCN(Cc3ccc(OC)c(C)c3C)C(CCO)C2)c1C (stereo unspecified)
    · | 0% | -5% | · | -13%[46.1 µM] | -20% | -17% | -22%[46.1 µM]
44. Cc1cc(C(=O)NC2CCCc3ccccc32)ccc1[N+](=O)[O-] (stereo unspecified)
    · | 0% | 3% | · | -19%[46.1 µM] | 23% | -10% | ?
45. COC(=O)C1=C(C)N(CCc2ccc(OC)c(OC)c2)C(=O)C1
    -2.4% | 5% | 13% | -1% | 2% | -24% | -8% | 2%
46. O=C(Nc1ccc2nc(SCc3ccccc3)sc2c1)c1ccccc1F
    -5.7% | · | · | -13% | -4%[46.1 µM] | -14% | · | -19%[46.1 µM]
47. CC(C)N1C(=O)CCC1C(=O)NC1CCCC1 (stereo unspecified)
    -1.0% | 5% | 1% | 8% | ? | 3% | 3% | 13%
48. COc1ccc(CC(=O)NCC2CCCN(Cc3ccccc3OC)C2)cc1 (stereo unspecified)
    · | 3% | 1% | · | · | -17% | 0% | ·
49. Cc1ccc(C(=O)N2CCC(Cc3ccccc3)CC2)cc1S(=O)(=O)N1CCOCC1
    · | 0% | · | · | ? | -22% | 22% | ?
50. c1ccc2nc(N3CCOCC3)cnc2c1
    -0.7% | 8% | 13% | 9% | -1% | 31%[activator] | -3% | -1%
51. N=c1c2c(n(Cc3ccc(F)cc3)c3c1CCC3)CCC2
    2.4% | -1% | 1µM* | -3% | -56% | -26% | 0% | ?
52. C/C(=N\NC(=O)c1ccc(Cl)cc1)c1cccc(NC(=O)C(C)C)c1
    1.4% | 2% | -8% | -5% | 0% | 18% | -27% | ?
53. CCC(=O)Nc1cc(SCCO)cc([N+](=O)[O-])c1
    5.3% | 3% | 4% | 8% | -36%[14.3 µM] | 9% | 3% | 10%
54. Cc1cc(C)cc(N(C)S(=O)(=O)c2nnc(NC(=O)C(C)C)s2)c1
    · | 0% | 3% | · | · | -9% | -4% | ?
55. Cc1ccc(N2C(=O)c3ccccc3C2(O)c2ccccc2)cc1 (stereo unspecified)
    · | · | · | · | 7%[46.1 µM] | -5% | -7% | -9%[46.1 µM]
